# Measles inh: inhibitors of measles virus growth in cells, primary screen, measles RdRp inhibitor project, cell-based, single point, HTS. z-score (no concentration beside the values). infected Vero cells, GFP fluorescence, 64 h; active compounds read low. 33,000 compounds, 0.1% hits;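 active = z-score under -3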;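 also: score is relative to mean and SD of the compound wells of a plate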
# Starred values were filed as active, the others as inactive. Only part of the results is shown. The share of hits here may be higher or lower than overall.
SMILES,Measles inh
CC(=O)Oc1cccc(C2C3=C(CC(C)(C)CC3=O)Nc3ccccc3N2C(=O)c2ccccc2)c1 (configuration not stated),-0.71
Cc1cc(C)c2ccc(N)nc2n1,-0.24
CCCC(=O)Nc1sc2c(c1C#N)CC(C)(C)NC2(C)C,-0.01
CC(=O)c1c(N2CCc3ccccc3C2)nc(=S)n(-c2ccccc2)c1C,4.8
Cc1ccccc1Cn1nc(C)c(NC(=O)c2cc(-c3ccc(Br)cc3)on2)c1C,0.47
Cc1nn(C(C)(C)C)c(OC(=O)c2ccc(Br)o2)c1S(=O)(=O)c1ccccc1,-1.5
Cn1c(=O)cc(SCC(=O)NCCN2CCOCC2)c2ccc(Cl)cc21,0.57
CCOc1cc(C2Nc3ccccc3-c3nnc(SC)nc3O2)ccc1OC (configuration not stated),0.48
O=C(Nc1nccs1)c1cc2cc(Cl)ccc2oc1=Nc1ccc(Cl)cc1,0.51
COc1cc(OC)c(OC)cc1CNC(C)C1COc2ccccc2O1 (configuration not stated),-0.92
CCOC(=O)C1CCCN(S(=O)(=O)c2cc(Br)cc3c2N(C(=O)C2CC2)CC3)C1 (configuration not stated),-0.62
Cc1ccccc1NC(=O)c1ccc(N(Cc2ccccc2)S(C)(=O)=O)cc1,-0.89
CC(=O)Nc1ccc2nc(NC(=O)c3ccc(S(=O)(=O)N4CC(C)CC(C)C4)cc3)sc2c1 (configuration not stated),0.21
c1ccc2c(c1)nc(N1CCCCC1)c1nncn12,-0.32
CC1C2NC(=S)N(c3ccc(F)cc3)C1(C)Oc1ccccc12 (configuration not stated),-0.9
O=c1ccc(-c2ccc(Cl)cc2)n[nH]1,1.4
CC(=O)Nc1ccc2nc(NS(=O)(=O)c3ccc(C)cc3)sc2c1,0.64
O=C(NCCc1ccccc1)c1c(O)c2cccc3c2n(c1=O)CC3,-0.96
c1ccc(CC2CCN(c3nc4ccccc4n4cnnc34)CC2)cc1,-0.84
Cc1ccc2c(c1)N(CCC(=O)NC(C)(C)C)C(=O)C(C)O2 (configuration not stated),-0.7
O=C(c1ccc2c(c1)OCO2)N(CC1CCCO1)C1(C(=O)NC2CCCCC2)CCCCC1 (configuration not stated),0.64
C=CCn1c(-c2ccncc2)n[nH]c1=S,1.5
CC(=O)c1ccc(N2C(=O)c3cccc4cc(Br)cc(c34)C2=O)cc1,-0.18
CC(=Nc1ccc(C)cc1)c1c(-c2ccccc2)[nH]n(-c2nc3ccccc3s2)c1=O,1.2
CCn1c(=NC(=O)c2ccc(S(=O)(=O)N3CCCC3)cc2)sc2cc([N+](=O)[O-])ccc21,1.1
O=C(Nc1ccc2nsnc2c1)c1ccc2nsnc2c1,-0.68
COc1ccc(Cl)cc1NC(=O)CN(c1cccc(C)c1C)S(=O)(=O)c1ccccc1,-0.79
O=C(CSc1nc2c(cnn2-c2ccc(F)cc2)c(=O)[nH]1)N1CCCC1,-0.83
CCN(CC)C(=O)CCS(=O)(=O)c1cccc2nonc12,-0.52
Cc1sc2ncn(CC(=O)NCCCC(=O)NC(C)C)c(=O)c2c1C,0.73
O=C(O)c1ccc(NC(=O)c2ccc(Br)c(S(=O)(=O)N3CCCC3)c2)cc1,0.04
COc1cc(C2c3sc(=O)[nH]c3SC3C4CC(C5C(=O)N(CC(=O)O)C(=O)C45)C23)ccc1O (configuration not stated),0.32
O=C(O)C1C2C=CC(O2)C1C(=O)NCc1ccncc1 (configuration not stated),0.7
COc1cccc(NS(=O)(=O)c2ccc3[nH]cc(C(=O)N(C)Cc4ccco4)c(=O)c3c2)c1,1.4
CCn1c(C)csc1=NC(=O)c1ccccc1,0.21
CCc1ccc(CNC(=O)C2Cc3ccccc3CN2S(C)(=O)=O)cc1 (configuration not stated),0.1
CN1C(=O)c2ccccc2C(C(=O)Nc2ccc3c(c2)OCCO3)C1c1cccs1 (configuration not stated),0.76
COc1ccc(NC(=O)c2sc3nc(C(F)(F)F)cc(-c4ccccc4)c3c2N)cc1OC,8.7
O=C(Nc1cc(NC(=O)C2CCCCC2)cc(-c2nc3ccccc3o2)c1)C1CCCCC1,-1.4
CCCCN(CC)S(=O)(=O)c1cc(C(=O)Nc2ccc(Br)cc2)ccc1F,2.5
COc1ccc(-n2nc3cc(C)c(NC(=O)c4cccc([N+](=O)[O-])c4C)cc3n2)cc1,1.6
C=CCn1c(Cc2c[nH]c3ccccc23)nnc1SCC(=O)Nc1c(C)cccc1C,-0.2
COc1ccccc1C(=O)N1CCN(C(=O)c2ccco2)CC1,-0.31
Cn1c(-c2c(CCC(=O)O)oc3cc(O)ccc3c2=O)nc2ccccc21,-0.13
Cc1ccccc1NS(=O)(=O)c1cccnc1,-0.99
COc1ccc(C2C(C(=O)OCCc3ccccc3)=C(C)NC3=C2C(=O)CCC3)c(OC)c1 (configuration not stated),-1.3
S=C1NCN(Cc2ccco2)CN1CC1CCCO1 (configuration not stated),-0.46
CCCCN1C(=O)C(=O)/C(=C(/O)c2ccc(OC)cc2)C1c1ccc(C)cc1 (configuration not stated),-0.46
CS(=O)(=O)c1ccc2nc(NC(=O)c3ccccc3Oc3ccccc3)sc2c1,-1.7
CCOC(=O)c1c(NC(=O)C2CCCN2S(=O)(=O)c2cccc3nsnc23)sc(C)c1C (configuration not stated),1.2
CCn1c(C)nc2cc(CO)ccc21,0.17
COc1ccc2nnc(-c3ccc(Br)cc3)n2n1,-0.38
CCOc1ccc2sc(NC(=O)c3ccc(N4C(=O)C5C6C=CC(C6)C5C4=O)cc3)nc2c1 (configuration not stated),0.04
Cn1c(SCc2cccc(C(F)(F)F)c2)nc2c([nH]c3ccccc32)c1=O,-0.06
CCOc1ccc(Nc2ncnc3c2cnn3Cc2ccccc2)cc1,-0.08
O=C1CC(N(CCc2ccccc2)C(=O)c2cccc(F)c2)C(=O)N1c1ccc(Cl)cc1 (configuration not stated),-0.86
Cc1ccc(CNC(=O)Cc2nc3nc(C)cc(C)n3n2)cc1,1.7
CCCCOc1ccc(C(=O)OCC(=O)c2ccc(Cl)cc2)cc1,-0.4
Cc1c(C(=O)NC(C)c2ccccc2)oc2ccc(S(=O)(=O)N3CCOCC3)cc12 (configuration not stated),-0.37
CC1CCc2nc(SC3CC(=O)N(c4ccc(Br)cc4)C3=O)c(C#N)cc2C1 (configuration not stated),0.36
# (continued)
SMILES,Measles inh
CC(=O)c1c(C)oc2c1c1c(c3ccccc32)OCN(CCCn2ccnc2)C1,3.6
COCCN1C(=O)c2ccccc2C(C(=O)N2CCN(c3ccccc3F)CC2)C1c1c[nH]c2ccccc12 (configuration not stated),-1.6
CCCOC(=O)c1sc2nc3c(c(-c4cccs4)c2c1N)CCC3,-0.31
c1ccc(Oc2ccc(Nc3ncnc4c3cnn4-c3ccccc3)cc2)cc1,-1.8
CC(=O)N1c2ccccc2NC2=C(C(=O)CC(c3ccc(C(C)(C)C)cc3)C2)C1c1cccnc1 (configuration not stated),0.87
Cc1cc(C)c(Cc2c(C)nc3c(C(=O)NCc4ccc5c(c4)OCO5)cnn3c2C)c(C)c1,0.56
CC(=O)C1=C(O)C(=O)N(CCCN2CCOCC2)C1c1ccc(O)cc1 (configuration not stated),-0.8
CCCCCCSc1nnc2c(n1)OC(C)N(C(C)=O)c1ccccc1-2 (configuration not stated),0.41
COC(=O)c1cc(NC(=O)c2sc3cc(C)ccc3c2Cl)cc(C(=O)OC)c1,-0.19
Cc1ccc(C2CC(=O)C3=C(C2)Nc2ccccc2NC3c2cccc(C)c2)cc1 (configuration not stated),-0.93
O=C(Nc1ccc(Br)cc1)NC(c1ccccc1)c1ccccc1,-0.58
COc1ccc(-c2cnnn2-c2ccc(NC(=O)c3cccc(C(F)(F)F)c3)cc2)cc1OC,0.54
CCOc1ccc(S(=O)(=O)N2CCN(c3ccccc3)CC2)c2cccnc12,-0.64
O=C(CNS(=O)(=O)c1cccs1)N1CCN(Cc2ccccc2)CC1,-0.3
CCOC(=O)c1ccc(Oc2nc(C)cc(OC)n2)cc1,-0.39
O=C(Nc1ccc(N2CCOCC2)c(Cl)c1)C1CCCCC1,0.08
O=[N+]([O-])c1ccc(N2CCN(S(=O)(=O)c3ccc(Br)cc3)CC2)cc1N1CCc2ccccc2C1,1
CCCCCOc1ccc(N/C(N)=N/c2nc(C)cc(C)n2)cc1,-0.34
Cc1cccc(C)c1NC(=O)Cn1c(=O)n(CCC(=O)N2CCc3ccccc3C2)c(=O)c2ccccc21,-0.46
N#Cc1ccc(C=Cc2cc(C(F)(F)F)[nH]c(=O)n2)cc1,0.08
CCc1ccc(-n2c(=O)c3c4c(sc3n(Cc3cc(=O)n5ccccc5n3)c2=O)CCC4)cc1,-0.86
COC(=O)C1=C(C)NC2=C(C(=O)CC(c3ccccc3)C2)C1c1ccc(F)cc1 (configuration not stated),-0.21
Cc1cc2nn(-c3ccc(Cl)cc3)nc2cc1NC(=O)c1ccc(C)c([N+](=O)[O-])c1,1.8
COc1ccc(-c2nn(-c3ccccc3)cc2C(=O)OCc2ccccc2)cc1,-0.4

# Four entries from above, sorted by heavy-atom count, rising:
SMILES,Measles inh
CCOC(=O)c1ccc(Oc2nc(C)cc(OC)n2)cc1,-0.39
O=C(CNS(=O)(=O)c1cccs1)N1CCN(Cc2ccccc2)CC1,-0.3
COc1ccc(-c2nn(-c3ccccc3)cc2C(=O)OCc2ccccc2)cc1,-0.4
O=[N+]([O-])c1ccc(N2CCN(S(=O)(=O)c3ccc(Br)cc3)CC2)cc1N1CCc2ccccc2C1,1

# The results go on.
SMILES,Measles inh
Fc1ccccc1C1C=C(c2ccc(Cl)cc2)Nc2ncnn21 (configuration not stated),-0.24
COC(=O)CCC(=O)COc1ccccc1C#N,1.7
CCOc1ccc(-c2cn(-c3ccc(C)cc3)c(=O)[nH]2)cc1Cl,0.58
CCOC(=O)c1ccc(N=Cc2ccc3c(c2)Cc2ccccc2-3)cc1,-0.87
CCOC(=O)c1sc(NC(=O)c2sc3cc(Cl)ccc3c2Cl)nc1C,0.05
O=C(O)c1ccc(-c2nnc(-c3cccc(Br)c3)o2)cc1,0.89
COC(=O)C(C)Oc1ccc2c(c1)oc(=O)c1ccccc12 (configuration not stated),-1.1
NC(=O)c1ccccc1O,0.06
CCC1(C)OC(=O)N(CCC#N)C1(C)O (configuration not stated),-0.5
CCOc1cc2[nH]c(=O)n(CCC(=O)NC3CCCCCC3)c(=O)c2cc1OCC,-0.19
CN1CCN(c2cc(N3CCN(CCO)CC3)ccc2[N+](=O)[O-])CC1,0.2
CCCOc1ccc(C(=O)Nc2ccc3nn(-c4ccc(OC)c(Cl)c4)nc3c2)cc1,0.4
CCc1cccc(N=c2oc3ccc(Br)cc3cc2C(=O)Nc2nccs2)c1,1.5
CC(C)c1ccc(-c2csc(NC(=O)c3ccc(Br)cc3)n2)cc1,0.77
Cc1ccc(OC2CCS(=O)(=O)C2)cc1 (configuration not stated),-1.7
O=C(Nc1ccc(NC(=O)c2ccc([N+](=O)[O-])o2)cc1Br)c1ccccc1,-0.79
CCCNc1nc2c(c(=O)n(C)c(=O)n2C)n1Cc1cccc(C)c1,-1.7
CCOc1ccccc1C(=O)Nc1c(C)n(C)n(-c2ccccc2)c1=O,1
CCC(C)NC(=O)Cn1c(=O)n(-c2ccc(C)c(C)c2)c(=O)c2c(C)c(C)sc21 (configuration not stated),0.62
CC1=C(C(=O)Nc2cc(C)ccn2)C(c2cccc([N+](=O)[O-])c2)C2=C(CCCC2=O)N1 (configuration not stated),-1
CCOc1ccc(C(=O)Nc2nccs2)cc1Br,-0.59
CC(C)(C)n1nc2c(c1NC(=O)Cc1ccc(F)cc1)CS(=O)(=O)C2,0.87
CCCOc1ccc(NC(=O)C2CC(=O)N(CC)C(=Nc3ccccc3OC)S2)cc1 (configuration not stated),0.33
CC(C)(C)c1cc2c(c(C(C)(C)C)c1)OC(c1cccc([N+](=O)[O-])c1O)N2 (configuration not stated),0.13

# By substructure: the entries above containing a COOH group
SMILES,Measles inh
O=C(O)c1ccc(NC(=O)c2ccc(Br)c(S(=O)(=O)N3CCCC3)c2)cc1,0.04
COc1cc(C2c3sc(=O)[nH]c3SC3C4CC(C5C(=O)N(CC(=O)O)C(=O)C45)C23)ccc1O (configuration not stated),0.32
O=C(O)C1C2C=CC(O2)C1C(=O)NCc1ccncc1 (configuration not stated),0.7
Cn1c(-c2c(CCC(=O)O)oc3cc(O)ccc3c2=O)nc2ccccc21,-0.13
O=C(O)c1ccc(-c2nnc(-c3cccc(Br)c3)o2)cc1,0.89

# Some of the entries above in another layout:
mol: COC(=O)CCC(=O)COc1ccccc1C#N
- Measles inh: 1.7

mol: O=C(CSc1nc2c(cnn2-c2ccc(F)cc2)c(=O)[nH]1)N1CCCC1
- Measles inh: -0.83

# Other records.
SMILES,Measles inh
CCNS(=O)(=O)c1cc(Br)cc2c1N(C(=O)CC)CC2,-0.77
O=C1c2ccccc2C(=O)c2c1cccc2N(CCO)CCO,1.6
O=C1c2ccccc2C(=O)c2cc(F)ccc21,-0.48
O=C(NCCCN1CCN(c2ccc(F)cc2)CC1)c1ccc2nc3cc(Cl)ccc3c(=O)n2c1,-0.76
CCOC(=O)C1=C(C)NC(=S)NC1c1cc(OC)ccc1O (configuration not stated),-0.17
O=C(Nc1nc(-c2ccc([N+](=O)[O-])cc2)cs1)c1ccccc1F,-0.19
CCOC(=O)c1sc(=S)n(-c2cccc3ccccc23)c1N,-0.51
O=C1CCCC(=O)N1c1ccc(N2CCCCCCC2)c([N+](=O)[O-])c1,1.3
COc1ccc(N2COc3cc4c(cc3C2)OCO4)cc1,0.29
N#Cc1c(NC(=O)c2ccc(N3C(=O)C4C5C=CC(C5)C4C3=O)cc2)sc2c1CCCC2 (configuration not stated),0.1
COc1ccc(-c2cnnn2-c2ccc(NC(=O)c3ccccc3OC)cc2)cc1OC,0.09
CCCCNC(=O)c1cc(-c2ccccn2)nc2ccccc12,-1.2
Cc1ccnc(N2C(=O)c3ccc(Oc4ccc5c(c4)C(=O)N(c4cc(C)ccn4)C5=O)cc3C2=O)c1,-0.12
COc1ccc(NC(=O)C2=C(C)NC3=C(C(=O)CC(c4ccc(OC)c(OC)c4)C3)C2c2ccc(N(C)C)cc2)cc1 (configuration not stated),0.31
O=C(O)c1cc(Cl)ccc1NS(=O)(=O)c1ccc(Cl)cc1,0.03

# High-throughput results from PubChem BioAssay.
